Vaccinia Venus – qHTS for Stage-Specific Inhibitors of Vaccinia Orthopoxvirus: Venus Reporter Primary qHTS. Vaccinia virus Venus reporter expression, fluorescence. Potency, µM (doses to about 36.5 µM), for the others: at the highest dose activity change, negative = inhibition, usual class: inhibitors. hit rate 0.46% among 330,000; active means well fitted inhibition curve with a large enough effect; inconclusive means small, poorly fitted or top-dose-only effect; inactive means no such curve, though single readings can be large or run the other way; tested in A549 cells; also: nearly all actives have a fitted effect of over 30% in size; inactives centre near -10
Vaccinia mCherry – qHTS for Stage-Specific Inhibitors of Vaccinia Orthopoxvirus: mCherry Reporter Primary qHTS; AID 720579, 2013; Potency, µM (titrated, usually from 36.5 µM), for the others: top-dose activity change, negative = inhibition, usual class: inhibitors; hit rate 0.63% among 310,000; Vaccinia virus mCherry reporter infection, fluorescence; about a quarter of the inactives have no number; active = well fitted inhibition curve with a large enough effect; inconclusive = small, poorly fitted or top-dose-only effect; inactive = no such curve, though single readings can be large or run the other way; tested in A549 cells; also: nearly all actives have a fitted effect of over 35% in size; inactives centre near -10
The depositor's hits bear a star; i = inactive; u = inconclusive; x = not tested or not shown; & = joins results of further samples; [ ] = remark or other dose. % is scaled to controls: 0 for no effect and ±100 for the full control effect; potency is read from the fitted curve at half-maximal effect. An unsorted share of the library, and some 0.87% of all compounds hit somewhere here.

SMILES | Vaccinia Venus | Vaccinia mCherry
COC(=O)C(C)Oc1cc(OC(C)C(=O)OC)c2c(C)c(Cl)c(=O)oc2c1 (configuration not stated) | -13.9% | i
COc1cc(C(=O)N/N=C/c2cn(Cc3ccccc3)c3ccccc23)ccc1O | -11.8% | -16.1%
CCOc1ccc(-c2nn[nH]n2)cc1 | -10.0% | -13.4%
Cc1cnc2c(C(=O)O)cnn2c1 | 0.2% | -6.4%
CCCOc1ccc(-c2nn(-c3ccccc3)cc2/C=C2\SC(=S)N(C3CCS(=O)(=O)C3)C2=O)cc1 (configuration not stated) | -1.9% | -10.9%
CCCCN(C(=O)c1ccc(C#N)cc1)c1c(N)n(CCC)c(=O)[nH]c1=O | -1.5% | -12.7%
CN(c1ncc(C(F)(F)F)cc1Cl)n1cc(C(N)=O)c2ccccc2c1=O | -12.0% | x
COc1ccc(NC(=O)c2cnn3c(C(F)(F)F)cc(-c4ccco4)nc23)cc1OC | -12.8% | x
CCCc1cc2c(cc1NC(=O)c1ccccc1C)OCO2 | 14.9% | x
COc1ccccc1NC(=O)c1sc2ncn(Cc3ccccc3Cl)c(=O)c2c1C | -22.1% | -8.1%
CCOc1ccc(NS(=O)(=O)c2ccc(NC(=O)C3CC3)cc2)cc1 | -20.4% | i
Cc1cc(C)c(S(=O)(=O)c2cccc(Cl)c2)c(Cl)n1 | -3.1% | i
O=C(c1ccc(S(=O)(=O)NCc2ccco2)cc1)N1CCN(Cc2ccccc2F)CC1 | u | u
COC(=O)c1cc2sccc2n1Cc1c(C)cc(C)cc1C | -7.1% | -8.0%
CCOc1ccc(/C=N/Nc2ccc(C(F)(F)F)cc2[N+](=O)[O-])cc1O | -12.8% | i
CCOc1ccc(CNS(=O)(=O)c2ccc(-c3coc(C)n3)cc2)cc1OC | -7.5% | -16.7%
O=C(Cn1cc(C(F)(F)F)ccc1=O)OCC(=O)c1ccc[nH]1 | -7.0% | -7.7%
Cc1ccc(-c2c(C(=O)Nc3ccccc3F)oc(=O)c3ccccc23)cc1 | -8.0% | i
COc1cc(NS(=O)(=O)c2ccc(NC(=O)c3cccnc3)cc2)ncn1 | -9.3% | -9.0%
Cc1ccc(NC(=O)CSc2n[nH]c(-c3ccncc3)n2)c(C)c1 | -8.5% | i
Cc1ccc(-c2nnc3ccccc3c2C(=O)Nc2ccc(C)c(F)c2)cc1 | -3.7% | -2.8%
O=C(OCc1cc(=O)n2nc(-c3cccs3)sc2n1)c1ccc(Cl)cc1 | -4.0% | -11.6%
c1ccc(Nc2nc(-c3cccnc3)cs2)nc1 | -7.4% | -14.5%
Cn1c(=O)c2cc(NC(=O)NCc3ccc(F)cc3)ccc2n1Cc1cccc(C(F)(F)F)c1 | -15.8% | -1.0%
Cc1nc(-c2ccc(F)cc2)sc1CCNC(=O)C(=O)Nc1ccc2c(c1)OCO2 | -6.2% | -14.1%
O=C1NCCN(Cc2ccc(Cl)c(F)c2)C1CC(=O)N1CCCCO1 (configuration not stated) | -9.9% | i
O=C(CN1C(=O)CCC1=O)Nc1cccc2c1C(=O)NC2=O | -2.3% | i
CSc1ncnc2c1ncn2CCCNCC1CCCCC1 | -4.3% | -14.5%
Cc1cccc(-n2c(O)c(C=Nc3ccccc3O)c3ccccc3c2=O)n1 | 5.5% | -22.0%
COCc1nnc(NC(=O)CCS(=O)(=O)c2ccccc2)s1 | -17.9% | -13.2%
Cc1cc(=O)oc2cc(OC(=O)c3cncc(Br)c3)ccc12 | -3.7% | -11.5%
CCOc1ccc(N2CC(NC(=O)c3ccc(Cl)cc3)CC2=O)cc1 (configuration not stated) | -1.4% | 4.1%
CO[C@@]12[C@@H]3N[C@@H]3CN1C1=C(C(=O)C(N)=C(C)C1=O)[C@@H]2COC(N)=O | 2.51µM* | 5.62µM*
Cc1ccc(-c2c(C(=O)N3CCN(c4cccc(C)c4C)CC3)oc(=O)c3ccccc23)cc1 | -10.9% | -19.9%
CCCCn1nc2cc(C(=O)NC[C@@H]3CCCO3)ccc2c1OCC | -25.6% | i
Cc1cccc(OCCCC(=O)Nc2ccc(S(=O)(=O)Nc3onc(C)c3C)cc2)c1C | 12.2% | x
O=c1cc(C(F)(F)F)[nH]c(=S)n1-c1ccccc1 | -4.5% | -7.7%
CN(C)/C=C(\C#N)C(=O)Nc1ccc(O)cc1F | -2.0% | -26.3%
COc1ccccc1N1CCN(C2CCN(S(=O)(=O)c3ccc(NC(C)=O)cc3)CC2)CC1 | -13.6% | -5.8%
COC(=O)c1ccc(Cl)c(NC(=O)CSc2nnc(-c3ccncc3)o2)c1 | -8.4% | -16.1%

Next section (three carried over from the part before).
SMILES | Vaccinia Venus | Vaccinia mCherry
CN(C)/C=C(\C#N)C(=O)Nc1ccc(O)cc1F | -2.0% | -26.3%
COc1ccccc1N1CCN(C2CCN(S(=O)(=O)c3ccc(NC(C)=O)cc3)CC2)CC1 | -13.6% | -5.8%
COC(=O)c1ccc(Cl)c(NC(=O)CSc2nnc(-c3ccncc3)o2)c1 | -8.4% | -16.1%
CCc1ccc(N2CC(C(=O)N3CCN(S(=O)(=O)c4cccc(F)c4)CC3)CC2=O)cc1 (configuration not stated) | u | -12.1%
CCNC(=S)NNC(=O)c1cc(-c2cc(C)ccc2C)nc2ccccc12 | -11.8% | -6.4%
CCOC(=O)C[C@H]1c2ccc(C(F)(F)F)cc2S(=O)(=O)N1C(C)(C)C | -6.6%&-16.6% | i
COc1ccc(CC(=O)NCc2ccc3c(c2)OCO3)cc1 | -19.2% | -20.6%
COc1ccc(/C=C/C(=O)OC(C)C(=O)c2ccccc2)cc1OC (configuration not stated) | -15.4% | -21.0%
COc1ccc(C2c3ccc4ccccc4c3Oc3ncn(CCCN(C)C)c(=N)c32)cc1 (configuration not stated) | u | u
Cc1nnc(SCC(=O)NC(C)(C)C)n1NCc1c(F)cccc1Cl | -3.0% | -23.8%
COc1cc(/C=C/c2c([N+](=O)[O-])c(=O)n(C)c(=O)n2C)cc(OC)c1OC | -13.1% | -27.1%
CCC(C)(C)NC(=O)CN(C(=O)CNS(=O)(=O)c1ccc(F)cc1)c1ccc2c(c1)OCCO2 | -5.2% | -8.8%
Cc1c(C)c2c(OCC(=O)NCc3ccncc3)cc3c(c2oc1=O)CCC(C)(C)O3 | u | i
Cc1cccc(N(C(=O)c2ccco2)C(C(=O)NC2CCCC2)c2cccnc2)c1C (configuration not stated) | -8.6% | i
Cc1csc(NC(=O)c2cc3c(s2)CCCCC3)n1 | u | x
CCC1CCCCN1C(=O)CSc1nc(C)cc(C)n1 (configuration not stated) | -14.5% | i
O=C(CCC(=O)c1ccc(F)cc1)NN1C(=O)NC2(CCCCC2)C1=O | -9.4% | -11.8%
COc1ccc(OC)c(/C=N/NC(=O)c2ccc(Cn3cc([N+](=O)[O-])cn3)o2)c1 | 1.3% | -1.2%
CCOc1ccccc1NC(=O)C(OC(=O)c1ccccc1O)c1ccccc1 (configuration not stated) | -11.6% | -11.5%
CCOP(=O)(NC12CC3CC(CC(C3)C1)C2)NC12CC3CC(CC(C3)C1)C2 | 3.5% | -3.6%
O=C(CCN1CCCCCC1)c1ccccc1 | -10.8% | -17.0%
O=C(NCC(c1ccco1)N1CCOCC1)c1ccc(Cl)cc1 (configuration not stated) | -3.1% | -12.8%
CC(C)[C@@H]1CC[C@@H](C)c2c(-c3ccccc3)n[nH]c21 | -29.0% | x
CCOC(=O)N1CCN(S(=O)(=O)N2CCCC(C(=O)NCc3ccccc3OCC)C2)CC1 (configuration not stated) | -26.6% | -2.5%
Cc1cc(Nc2ccc(Cl)cc2)n2cnnc2n1 | -10.1% | -18.6%
COc1ccccc1CNC(=O)Cn1cc2c(n1)-c1c(oc(C(=O)N3CCOCC3)c1C)CC2 | -11.3% | -14.9%
O=C(O)CSc1cc(C(=O)c2ccccc2O)cn2c(=O)c3c4c(sc3nc12)CCCC4 | 32.3%[activator] | -3.8%
COc1ccc(C)cc1NC(=O)C1COc2ccccc2C1 (configuration not stated) | -8.4% | -13.9%
O=C1CC(/C=C/c2ccccn2)=Nc2ccccc2N1 | 1.8% | -12.9%
C/C(CC(=O)N1CCN(C=O)CC1)=N\NC(=O)c1cc2ccccc2cc1O | -3.1% | i
Cc1cc(C)n(CC(=O)N2CCc3ccccc32)c(=O)c1C#N | 7.4% | -4.4%
CC(C)Cc1nnc(NC(=O)C2CCCN(C(=O)c3ccc(Cl)cc3)C2)s1 (configuration not stated) | -29.0% | i
CCN(Cc1ccncc1)C(=O)c1ccccc1NS(=O)(=O)c1ccc(F)cc1 | -6.0% | i
Cc1ccc(/C=C2\NC(=S)NC2=O)cc1[N+](=O)[O-] | -6.7% | i
Cc1cccc(NC(=O)/C(=C\c2ccc([N+](=O)[O-])o2)NC(=O)c2ccc(Cl)cc2)c1 | -5.0% | -14.2%
C[C@H]1[C@@H](c2ccccc2)Oc2ccc(Cl)cc2S(=O)(=O)N1Cc1ccc(F)cc1F | -10.4% | i
Cc1ccc(/C=N/NC(=O)c2cc3c(ccc4ccccc43)o2)o1 | -9.9% | -13.8%
Cc1cc(C)n2nc(CC(=O)NC3CCCCCC3)nc2n1 | -2.0% | 0.1%
Cc1ccc(NC(=O)CCCC(=O)O)c(Br)c1 | -13.9% | x
CCN(Cc1ccccc1)Cc1c(O)ccc2c(=O)c(-c3ccccc3Cl)coc12 | 4.2% | 6.0%
O=C(CN1CCN(C(=O)c2ccco2)CC1)Nc1ccc(F)cc1F | -12.0% | -17.5%
COc1cccc(CNC(=O)c2ccccc2N)c1 | -14.8% | x
C/C(=N/NC(=O)CC(=O)N/N=C(\C)c1ccc([N+](=O)[O-])cc1)c1ccc([N+](=O)[O-])cc1 | -5.0% | -7.1%
Cc1ccccc1CN1CCc2c(OCC(=O)N3CCCc4ccccc43)cccc2C1=O | u | -21.6%
Cc1cc(C)n2ncc(S(=O)(=O)c3ccccc3)c2n1 | -3.4% | -9.9%
CCOc1ncccc1C(=O)OC(C)C(=O)NC(=O)NC1CCCCC1 (configuration not stated) | -12.1% | i
COc1ccc(-n2c(N)c(C(=O)Nc3c(C)n(C)n(-c4ccccc4)c3=O)c3nc4ccccc4nc32)cc1 | -7.2%[7.34 µM] | i[7.34 µM]
O=C(Nc1ccccc1C(F)(F)F)N1CCC(n2c(=O)[nH]c3ccccc32)CC1 | -18.2% | x
CCOC(=O)C1Cc2ccccc2CN1 (configuration not stated) | -14.1% | -3.6%
CC(=O)c1ccc2noc(-c3ccc(Cl)cc3)c2c1 | -1.8% | -11.8%
CCCCN(CC)C(=O)CCNS(=O)(=O)c1ccc2c(c1)c(=O)n(C)c(=O)n2C | 2.4% | 2.3%
O=C(NCCc1ccccc1)c1cc(Sc2ccc(F)cc2F)nc2ccccc12 | -15.2% | -2.0%
COc1ccc(CCNC(=O)C(=O)N2CCCCC2)cc1OC | -15.9% | -21.0%
Cc1cc(=O)n(Nc2ccccc2)c(O)c1C#N | -3.0% | i
Fc1ccc(-c2cc(C(F)(F)F)nc(NCc3cccs3)n2)cc1 | -20.8% | i
COc1ccc(NC(=O)COC(=O)/C=C/C(=O)OCC(=O)Nc2ccc(OC)c(Cl)c2)cc1Cl | -17.0% | -5.2%
CCCn1c(NCc2ccco2)nc2c1c(=O)n(C)c(=O)n2C | -15.8% | x
O=[N+]([O-])c1cc(C(F)(F)F)cc([N+](=O)[O-])c1NCCCNc1ccc([N+](=O)[O-])c2cccnc12 | -3.7% | -4.7%
S=C(Nc1ccc(Cl)c(Cl)c1)NN1CCOCC1 | -7.7% | u
Cc1oc2ncn(C)c(=O)c2c1C(=O)NCCCN1CCCCC1C (configuration not stated) | -1.5% | -10.3%
O=C(c1ccccc1)C(I)(I)N1CCOCC1 | -11.2% | 38.1%[activator]
N/C(Cn1cncn1)=N\NC(=O)C(=O)Nc1ccc(Cl)cc1Cl | -8.4% | u
Cc1cc2ccccc2nc1-c1ccccc1F | -4.9% | i

The results go on:
SMILES | Vaccinia Venus | Vaccinia mCherry
O=C(NC(=O)c1ccccc1)OCC1CCCN2CCCCC12 (configuration not stated) | -3.0% | -12.1%
Cn1sc2ccccc2c1=O | -12.5% | -15.1%
Cc1ccc(NC(=O)Cn2c(=O)n(CCCCC(=O)NCCc3ccc(Cl)cc3)c(=O)c3ccccc32)cc1 | -14.2% | i
NC(=O)C(CCCCN1CCCCC1)(c1ccccc1)c1ccccc1 | -7.9% | -2.9%
Cc1nc(NCc2ccccc2)sc1C(=O)Nc1ccccc1 | -17.6% | i
COc1ccc(NC(=O)c2nc[nH]c2C(=O)Nc2ccccc2C)cc1 | u | x
CCCNc1nc(NCC)nc(OC)n1 | -4.0% | x
COc1cccc(NC(=O)CSc2nnc(CN3CCOCC3)n2C)c1 | -11.2% | -4.2%
COCCNc1nc2nonc2nc1N1C[C@H]2CC[C@H]1C2 | -10.5% | 4.7%
COc1ccnc(-n2cccc2/C=N/O)c1C#N | -2.2% | i
COc1ccc(C(C(=O)NC(C)(C)C)N(Cc2cccs2)C(=O)CCC(=O)Nc2cc(C)on2)cc1 (configuration not stated) | -9.1% | -16.4%

Record cards, as listed above.
COCCNc1nc2nonc2nc1N1C[C@H]2CC[C@H]1C2 in the list: Vaccinia Venus = -10.5%; Vaccinia mCherry = 4.7%
Cn1sc2ccccc2c1=O in the list: Vaccinia Venus = -12.5%; Vaccinia mCherry = -15.1%

From PubChem BioAssay
